# Rango-impB inh: prevents formation of the Rango-importin beta complex | Q14974 | Rango CFP/YFP FRET sensor + importin beta, 45 min | Potency, µM (top dose mostly 92.2 µM), inactives show top-dose inhibition of complex formation | 0.031% of 340,000 active; active = rising FRET ratio curve, often small or poorly fitted; inconclusive = mostly compound fluorescence or quenching in the first reads; inactive = flat curves in all reads;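 further: potency means the concentration at half of the fitted maximal effect; 0% = DMSO wells and 100% = buffer wells lacking importin beta; nearly all actives have a fitted effect of over 15% in size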
#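 Inhibition scored from the CFP 486 nm/YFP 530 nm FRET ratio 45 min after adding 0.125 microM importin beta to 50 nM Rango biosensor preincubated 5 min with compound (room temperature, PBS with DTT, Tween-20, BSA). No-importin wells as positive control.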
# miR-21 reporter: raises the signal of a miR-21 reporter; AID 2288; Potency, µM (top dose mostly 38.3 µM), inactives show top-dose reporter change, positive = more light; HeLa miR-21 FLuc reporter, luciferase, 48 h; 340,000 tested, under 10 active; active = well fitted rising curve with a large enough effect; inconclusive = small, poorly fitted or top-dose-only effect; inactive = no such curve, though single readings can be large or run the other way;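 further: % of control where 0% means no effect; miR-21 action dims this reporter so a rising signal means less miR-21 action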
#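 HeLa cells stably expressing CMV-driven firefly luciferase with a downstream miR-21 binding sequence, endogenously expressing miR-21, were treated with titrations (up to about 40uM final) for 48 hours at 37 degree Celsius. Luciferase luminescence was read after lysis.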
# Rango dissoc inh: inhibitors of RanGTP-induced Rango-importin beta complex dissociation; Biochemical FRET Rango-importin beta, RanGTP-induced dissociation; Potency, µM (series often up to 46.1 µM), for inactives: at the top dose activity change, negative = inhibition; 0.071% of 340,000 active; AID 540253; active means falling FRET ratio curve, often poorly fitted, with flat reads before Ran was added; inconclusive means other falling curves, or compound fluorescence or quenching; inactive means flat or rising ratio curve;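 further: potency means the concentration at half of the fitted maximal effect; % of control where 0% means no effect; nearly all actives have a fitted effect of over 45% in size; -100% = wells without RanGTP and RCC1; the record marks most hits as doubtful in a second field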
#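 Compounds preincubate 5 min with complex of recombinant Rango and importin beta in PBS with 1 mM DTT. Ran (0.6 uM) loaded with 2 mM GTP plus 0.2 uM RCC1 starts dissociation; FRET is recorded 45 min later.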
# GLA inh pH 4.5: alpha-galactosidase A (human) inhibition, pH 4.5 | P06280 | purified enzyme, 4-MU-alpha-Gal fluorescence, pH 4.5 | 230,000 tested, under 10 active | activity change, negative = inhibition, % at 105 µM; inconclusive = small, poorly fitted or top-dose-only inhibition, or a rising curve; inactive = flat fitted curve, though single readings scatter; no compound was filed as active;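 further: 0% = full activity with enzyme and -100% = basal without enzyme; dose as in the result columns while the protocol names 77 µM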
# Target sequence (P06280 whole entry, looked up): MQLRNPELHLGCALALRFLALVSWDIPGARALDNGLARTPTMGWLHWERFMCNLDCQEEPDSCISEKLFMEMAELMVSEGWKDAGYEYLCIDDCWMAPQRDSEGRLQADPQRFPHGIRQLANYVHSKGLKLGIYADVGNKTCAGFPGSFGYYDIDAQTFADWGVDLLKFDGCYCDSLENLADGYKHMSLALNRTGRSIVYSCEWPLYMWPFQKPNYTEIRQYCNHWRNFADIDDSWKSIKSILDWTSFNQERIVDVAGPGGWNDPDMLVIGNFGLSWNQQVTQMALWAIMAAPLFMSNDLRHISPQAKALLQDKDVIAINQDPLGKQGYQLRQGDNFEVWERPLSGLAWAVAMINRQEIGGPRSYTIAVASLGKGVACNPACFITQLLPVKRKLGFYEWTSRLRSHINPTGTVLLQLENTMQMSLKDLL
# * hit, by the source's call; ? = inconclusive; . = not tested or not shown.
canonical_smiles | Rango-impB inh | miR-21 reporter | Rango dissoc inh | GLA inh pH 4.5
O=C(CC(C(=O)O)c1ccccc1)c1cccs1 (centres undefined) | 0.5% | 1% | -12% | 3
CC(C)c1ccc(NC(=O)c2snc3ccc(Cl)cc23)cc1 | 0.5% | -48% | 1% | -1
CC1CCc2c(sc(NC(=O)C3c4ccccc4Oc4ccccc43)c2C(N)=O)C1 (centres undefined) | 3.6% | -8% | -14% | -1
O=C(c1ccc(NC(=S)NCc2ccco2)cc1)N1CCOCC1 | -2.7% | 0% | 16% | -8
CC(=O)Cc1nsc(Nc2ccc(C)cc2)n1 | -2.3% | 0% | -3% | 0
Cc1ccc(S(=O)(=O)Nc2cccc(C(=O)NCCCn3ccnc3)c2)cc1F | -0.5% | . | -11% | .
COc1ccccc1NS(=O)(=O)c1cc(NC(=O)/C=C/c2cccs2)ccc1N1CCOCC1 | 4.9% | -7% | -4% | -3
COc1ccc(CNC2C[C@H]3CCCC(=O)N4CC[C@@H](C2)[C@@H]34)cc1 (some centres undefined) | -6.6% | . | 15% | 1
COc1ccc(S(=O)(=O)Cc2ccc(C(=O)N3CCOCC3)o2)cc1 | -3.8% | 0% | -17% | 1
COCCCNC(=O)CCCn1c(=O)c2ccccc2n(CC(=O)Nc2c(C)cccc2C)c1=O | -0.4% | -6% | 1% | -3
COc1cc(C)c(C(C)C)cc1S(=O)(=O)N1CCOCC1 | 6.8% | -7% | 2% | 6
CC(C)NC(=O)COC(=O)CNC(=O)c1cc(Cl)cc([N+](=O)[O-])c1 | 3.5% | -2% | 0% | -3
O=C(COC(=O)Cc1ccc(S(=O)(=O)N2CCOCC2)s1)Nc1ccccc1 | -1.5% | . | 0% | .
COc1ccccc1N1C(=O)C2CC(C)=C(C)CC2C1=O (centres undefined) | 1.2% | 0% | -7% | .
COc1cc(OC)cc(C(=O)NC(=S)N(Cc2ccccc2)C(C)C)c1 | 0.7% | 18% | 2% | .

# The results go on.
canonical_smiles | Rango-impB inh | miR-21 reporter | Rango dissoc inh | GLA inh pH 4.5
COc1cccc(C(=O)NC2CCCc3ccccc32)c1OC (centres undefined) | -1.3% | -9% | -5% | .
O=C(O)c1ccc(Br)cn1 | 0.4% | 0% | 10% | -1
CC(=O)NC1(c2cccc(F)c2)CCN(CC(=O)NC2CCCCC2)CC1 | -4.4% | 0% | 6% | 4
COC(=O)CC1(c2ccccc2)C(=O)c2ccccc2C1=O | -4.3% | -4% | -11% | 2
COc1ccc(C(=O)c2c3ccc(C(F)(F)F)cc3[n+]([O-])n2CCCN)cc1 | -0.4% | . | -1% | .
CC(Sc1nnnn1C)C(=O)Nc1ccccc1 (centres undefined) | -0.9% | 2% | -6% | 1
Cn1c(-n2c(CCCN3C(=O)c4ccccc4C3=O)nc3ccccc3c2=O)nc2ccccc21 | 3.1% | 1% | -2% | -1
CCN(CC(=O)Nc1ccccc1OC)C(=O)C1CCC1 | 0.6% | . | 21% | .
O=C(c1cc(COc2c(F)cccc2F)on1)N1CCN(C2CCCCC2)CC1 | -1.3% | -4% | -26% | .
Cn1cccc1CNC(=O)Nc1ccccc1 | -0.7% | -44% | 1% | 13
CN(CC(=O)Nc1c(Cl)cccc1Cl)C(=O)c1n[nH]c2ccccc12 | -1.2% | . | 3% | .
O=C(NC(=S)Nc1ccc(-c2ccc(CO)o2)cc1)c1cccs1 | 0.8% | -30% | 15% | -3
O=S(=O)(Nc1cc(Sc2ncn[nH]2)c(O)c2ccccc12)c1ccccc1 | 4.7% | ? | 9% | -17
CCOc1ccccc1NC(=O)C1CCCN1C(=O)OCc1ccccc1 (centres undefined) | 3.3% | -3% | -3% | 2
COc1ccc(-c2nc(C)sc2CC(=O)O)cc1 | 3.8% | -1% | 16% | 1

# Three of the compounds above, with values under each structure.
# Values run as follows: Rango-impB inh	miR-21 reporter	Rango dissoc inh	GLA inh pH 4.5
CCN(CC(=O)Nc1ccccc1OC)C(=O)C1CCC1
  0.6%	.	21%	.
CCOc1ccccc1NC(=O)C1CCCN1C(=O)OCc1ccccc1 (centres undefined)
  3.3%	-3%	-3%	2
COc1ccc(C(=O)c2c3ccc(C(F)(F)F)cc3[n+]([O-])n2CCCN)cc1
  -0.4%	.	-1%	.

# Five of the compounds above, with values under each structure:
# Below each SMILES – Rango-impB inh	miR-21 reporter	Rango dissoc inh	GLA inh pH 4.5
COc1ccc(C(=O)c2c3ccc(C(F)(F)F)cc3[n+]([O-])n2CCCN)cc1
  -0.4%	.	-1%	.
CC(Sc1nnnn1C)C(=O)Nc1ccccc1 (centres undefined)
  -0.9%	2%	-6%	1
Cn1c(-n2c(CCCN3C(=O)c4ccccc4C3=O)nc3ccccc3c2=O)nc2ccccc21
  3.1%	1%	-2%	-1
CCN(CC(=O)Nc1ccccc1OC)C(=O)C1CCC1
  0.6%	.	21%	.
O=C(c1cc(COc2c(F)cccc2F)on1)N1CCN(C2CCCCC2)CC1
  -1.3%	-4%	-26%	.

# The list goes on:
canonical_smiles | Rango-impB inh | miR-21 reporter | Rango dissoc inh | GLA inh pH 4.5
Cc1ccc(COC(=O)CN2C(=O)NC3(CCCC3)C2=O)cc1 | -2.7% | . | -1% | .
COc1ccccc1OCC(=O)NNC(=O)c1cccs1 | -1.8% | -1% | -12% | 0
Cc1ccc(CN(C)C(=O)c2cccc(S(=O)(=O)N3CCCC3)c2)o1 | 0.2% | . | -2% | .
Cc1cc(NC(=O)C2CC=CCC2C(=O)O)no1 (centres undefined) | -1.3% | 1% | 16% | 6
Cc1ccc(NS(=O)(=O)c2ccc(Cl)c(NC(=S)NC(=O)C3CCCCC3)c2)cc1Cl | 1.8% | 11% | -7% | -3
CCOC(=O)[C@H]1[C@H]2COc3ccc(C)cc3[C@@H]2N2C(=O)CN(Cc3ccc(C)cc3)C(=O)[C@@]12C | -0.4% | . | -9% | .
CC(=O)Nc1ccc(S(=O)(=O)N2CCN(c3ccc([N+](=O)[O-])c(NCCN4CCOCC4)c3)CC2)cc1 | -2.0% | -10% | -15% | -6
O=C(CCS(=O)(=O)c1ccc(Br)cc1)N1CCN(c2ccccc2F)CC1 | -3.8% | 0% | -7% | -1
COc1cccc2c3cccc(OC)c3c3[nH]cnc3c12 | -0.9% | . | -17% | .
CCOC(=O)C1=C(C)N(Cc2ccccc2)C(=O)NC1c1ccc(OC)cc1 (centres undefined) | -1.6% | 5% | -26% | -6
COc1ccc(Cc2nnc(NC(=O)c3cccc(C)c3)s2)cc1 | 0.8% | -2% | -9% | 2
COc1ccc(CN(C)C(=O)Cn2cnc3c(OCc4ccccc4)ncnc32)cc1OC | -4.1% | . | 27% | .
Cc1cccc(C2c3[nH]c4ccccc4c3CCN2C(=O)c2cc3c([nH]c2=O)CCCC3)n1 (centres undefined) | -2.5% | 0% | 9% | -4
C/C(=N\NC(=O)COc1ccc(C)cc1C(C)C)c1cc2ccccc2o1 | -1.1% | -4% | -14% | 6
Cc1[nH]c2ccccc2c1C(=O)CSC(=S)N(C)C1CCCCC1 | -3.8% | -37% | -6% | -23

# (more compounds)
canonical_smiles | Rango-impB inh | miR-21 reporter | Rango dissoc inh | GLA inh pH 4.5
OCCOCCNc1ncnc2c1cnn2-c1ccc(Cl)cc1 | -3.6% | -33% | 0% | -13
CC12CCC(C(=O)NCc3ccc4c(c3)OCO4)(CC1=O)C2(C)C (centres undefined) | -0.7% | -1% | -1% | -16
CCOC(=O)Nc1ccc(N2CCOCC2)c(S(=O)(=O)Nc2ccc(Cl)cc2)c1 | -1.8% | . | -4% | .
COc1ccc(Br)cc1C1SCCN1S(C)(=O)=O (centres undefined) | -1.6% | -8% | 5% | 1
COc1ccc([C@@H]2[C@@H]3C(=O)N(C(C)(C)C)C(=O)[C@@H]3[C@]3(CC(C)C)C(=O)N(c4ccc(C(F)(F)F)cc4)C(=O)N23)cc1 | -4.3% | -4% | 11% | .
O=C(NCCCNC(=O)c1ccc(F)cc1)c1ccc(F)cc1 | 0.2% | -6% | -19% | .
CCOc1ccc(-c2cc(C(=O)NCCCn3ccnc3)c3cc(Br)ccc3n2)cc1 | -0.4% | -1% | -9% | .
O=C(/C=C/Nc1ccccc1OC(F)(F)F)C(F)(F)F | 7.1% | -1% | 16% | -5
Cc1ccsc1/C=N/NC(=O)Cn1nc(C)c([N+](=O)[O-])c1C | -2.0% | 8% | 10% | 1
CC(=O)c1cccc(OC(=O)c2cc(S(=O)(=O)N3CCOCC3)ccc2N2CCCC2)c1 | -1.2% | . | -4% | .
c1ccc(CN2CCN(c3nc(N4CCOCC4)c4ccccc4n3)CC2)cc1 | ? | . | -4% | .
Cc1ccc2cc(CN(CCc3ccccc3)C(=S)NCCCN(C)C)c(=O)[nH]c2c1 | 3.0% | 18% | 17% | .
CCOC(=O)C[C@H]1c2cc(F)ccc2S(=O)(=O)N1C(C)C | -4.1% | . | -3% | .
CC1CCN(C(=S)NCCc2ccccc2)CC1 | -5.3% | -60% | 0% | 2
CCOn1c(=O)c(-c2cc3ccccc3o2)[n+]([O-])c2ccccc21 | ? | -48% | ? | -3

# Going on with the list:
canonical_smiles | Rango-impB inh | miR-21 reporter | Rango dissoc inh | GLA inh pH 4.5
CCOc1ccc(S(=O)(=O)N(C)C)cc1-c1nc2c(C(C)(C)C)nn(C)c2c(=O)[nH]1 | 3.8% | -7% | 15% | 11
Cc1ccc(C(=O)N2CCN(S(=O)(=O)c3ccc(C(C)C)cc3)CC2)s1 | 3.4% | . | 9% | .
CCN1C(=O)c2ccccc2S(=O)c2ccc(C(=O)N3CCCC3)cc21 (centres undefined) | 2.1% | -7% | -18% | 0
CC(C)Sc1nc2c(c(=O)n1C)SC(C)C2 (centres undefined) | -0.3% | -17% | -1% | 3
Cc1nc(N2CCN(Cc3ccc4c(c3)OCO4)CC2)nc2c1C(=O)CC(c1ccco1)C2 (centres undefined) | 1.3% | -6% | -5% | -7
O=C(Oc1cccnc1)c1ccc([N+](=O)[O-])cc1Cl | -1.4% | 0% | -12% | 2
COc1cc(/C=C2\SC(=O)NC2=O)ccc1Oc1ccc([N+](=O)[O-])cn1 | -2.9% | -10% | -19% | -2
Cc1sc2nc(CN3CCCC3)nc(Cl)c2c1C | 0.2% | -3% | 5% | 0
C=CCn1c(=O)/c(=C2/Sc3ccccc3N2CC)s/c1=C1/C(=O)NN=C1C | . | -10% | . | -5
COc1ccc(CN2CCCCCC2)cc1OC | -0.2% | . | -4% | .
CCOC(=O)C(Cc1ccc(O)cc1)NC(=O)CNC(=O)C1CCCN1C(=O)OC(C)(C)C (centres undefined) | 0.8% | 0% | 0% | -1
COc1cc(NS(=O)(=O)c2ccc(NC(=O)C34CC5CC(CC(C5)C3)C4)cc2)ncn1 | 2.2% | -14% | 4% | -10
COc1cccc(Oc2coc3cc(OC(=O)N4CCOCC4)ccc3c2=O)c1 | 3.5% | 11% | 1% | -13
Cc1cccc(N(C)S(=O)(=O)c2ccc3[nH]c(=O)c(=O)[nH]c3c2)c1 | -4.1% | -5% | 4% | -14
CCCN1CNC(=S)N(c2cc(C)ccc2C)C1 | -0.1% | -3% | -1% | 3

# Following part
canonical_smiles | Rango-impB inh | miR-21 reporter | Rango dissoc inh | GLA inh pH 4.5
O=C(CSc1nc(-c2ccccc2)c(-c2ccccc2)o1)NCCCO | ? | 1% | -10% | .
OCCN1CCN(C2Cc3cc(Cl)ccc3Sc3ccc(Cl)cc32)CC1 (centres undefined) (tested in a mixture with another compound) | -1.8% | 7% | 9% | -5
COC(=O)c1cccc(Cn2nc(C)c([N+](=O)[O-])c2C)c1 | -0.7% | 3% | -5% | 4
CC(C)C(=O)NC(=S)Nc1ccc(S(=O)(=O)NC2CCCCC2)cc1 | 2.5% | 9% | 13% | .
CCc1nnc(NS(=O)(=O)c2ccc(NCc3cc(Cl)cc(Cl)c3O)cc2)s1 | -5.8% | -11% | -2% | .
Cc1cc2occ(CC(=O)N(CC(C)C)c3c(N)n(Cc4ccccc4)c(=O)[nH]c3=O)c2cc1C | 0.6% | . | -8% | .
CCOc1cccc(NC(=O)c2cccc(F)c2)c1 | -3.6% | -16% | 13% | 7
COC(=O)c1sc(NC(=O)c2ccc([N+](=O)[O-])o2)c(C#N)c1C | -3.8% | 17% | 1% | 0
Oc1c(Cl)cc(Cl)cc1CNc1ccc(Br)cn1 | 0.9% | -39% | -7% | -2
CCOC(=O)c1sc(N(Cc2ccccc2)C(=O)COC(=O)c2ccccc2O)nc1C | 1.8% | -42% | -9% | -3

# Screens from PubChem.

# A portion of the library. The share of hits here may be higher or lower than overall.
